HPGD block – qHTS Assay for Inhibitors of HPGD (15-Hydroxyprostaglandin Dehydrogenase). purified HPGD, NADH fluorescence kinetic, PGE2 substrate. Potency, µM, for inactives: at the top dose activity change, negative = inhibition, hits mostly inhibitors. 150,000 tested, 4.3% active. 15-hydroxyprostaglandin dehydrogenase [NAD(+)] (Homo sapiens), P15428; active = well fitted inhibition curve with a large enough effect (not every such curve was filed as active); inconclusive = small, poorly fitted or top-dose-only effect, or another doubt; inactive = no such curve, though single readings can be large or run the other way;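 note: top concentration of the series not given in the record; plate controls included wells without enzyme; inactives centre near -10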
Target sequence (P15428 whole entry, looked up): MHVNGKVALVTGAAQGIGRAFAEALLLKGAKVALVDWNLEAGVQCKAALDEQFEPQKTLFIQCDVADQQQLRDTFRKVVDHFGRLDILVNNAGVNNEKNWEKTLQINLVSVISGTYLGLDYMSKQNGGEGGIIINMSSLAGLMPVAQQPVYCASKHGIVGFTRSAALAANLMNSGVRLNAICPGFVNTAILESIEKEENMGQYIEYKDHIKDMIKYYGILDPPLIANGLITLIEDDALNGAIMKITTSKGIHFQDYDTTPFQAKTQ
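20 nM HPGD preincubated 15 min at room temperature with compound in 50 mM Tris-HCl pH 8, 0.01% Tween 20. Started with 1 mM NAD+ and 30 uM prostaglandin E2; NADH fluorescence (360/450 nm) read 5 times over 30-s intervals, last minus first.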
Active calls of the source: *; u = inconclusive; & = joins results of further samples. % is set by controls: 0 for no effect and ±100 for the full control effect; potency is the fitted concentration of half-maximal effect. This is a subset, so the mix of outcomes need not match the whole.

SMILES	HPGD block
Cc1ccc(C(=O)c2cc([N+](=O)[O-])ccc2N2CCN(C)CC2)cc1	-3%
O=C(CN(Cc1ccco1)C(=O)c1cc(=O)[nH]c2ccccc12)Nc1ccccc1C(F)(F)F	-18%
CC1Cc2ccccc2N1CC(=O)NC(=O)NCc1ccco1 (stereo unspecified)	-12%
Cc1[nH]cnc1CSCc1ccc(Cl)cc1	-14%
CC(=O)c1ccc(Oc2cc(-c3ccccc3)nc(-c3ccccc3)n2)cc1	-11%
O=C(NCc1ccco1)C(c1ccccc1F)N(CC1CCCO1)C(=O)Cn1nnc2ccccc21 (stereo unspecified)	-7%
CC(=O)c1ccc(N(C(=O)Cc2c[nH]c3ccccc23)C(C(=O)NC2CCCCC2)c2cccs2)cc1 (stereo unspecified)	-1%
CCOc1ccc(NS(=O)(=O)c2cc(NC(=O)c3ccc(C)cc3)ccc2Cl)cc1	u
O=C(C1CC(c2cccc(Br)c2)=NO1)N1CCc2ccccc2C1 (stereo unspecified)	u
CCOc1ccc(OCCCCN(C)C)cc1	-5%
Cc1nn(-c2ccc(F)cc2)c2sc(C(=O)OC3CCOC3=O)cc12 (stereo unspecified)	u
CCn1c(SCC(=O)Nc2nc3ccccc3s2)nc2c(c1=O)SC(C)C2 (stereo unspecified)	-6%
C/C(=N/NC(=O)c1ccc(Br)o1)C(C)C	-8%
O=C(N/N=C/c1ccc(OC(=O)c2ccc3c(c2)OCO3)cc1)c1cncc(Br)c1	-15%
COC(=O)c1cc(C(=O)OC)cc(N2C(=O)CC(N3CCN(c4ccccc4)CC3)C2=O)c1 (stereo unspecified)	-20%
CCCS(=O)(=O)N1CCCC(C(=O)NCCCN2CCN(c3ccccc3F)CC2)C1 (stereo unspecified)	-6%
Cc1ccc(-c2ccc(CCC(=O)O)n2CC(=O)O)cc1	u
COC(=O)C1CCN(C(c2cc(OC)c(OC)c(OC)c2)c2sc3nc(C)nn3c2O)CC1 (stereo unspecified)	-4%
COc1ccc(CNC(=O)c2cc3c(=O)n4ccccc4nc3n(CC3CCCO3)c2=N)cc1 (stereo unspecified)	u
COc1ccccc1NC(=S)N1CCC(c2nc3cc(C)c(C)cc3[nH]2)CC1	-5%
Cc1cc(C(=O)c2ccccc2)c(NC(=O)CN2CCOCC2)s1	0%
NC(=O)NCC1CC1	-11%
CCCN1Cc2cccc(C(=O)Nc3ccc(S(=O)(=O)N4CCCCCC4)cc3)c2C1=O	u
O=C(Nc1ccccc1)N1CC[C@@]2(CCCN(C(=O)c3cc(C(F)(F)F)cc(C(F)(F)F)c3)C2)C1	-4%
CC(=O)N1N=C(c2cccc([N+](=O)[O-])c2)OC1c1ccc(Cl)cc1Cl (stereo unspecified)	-2%
C/C(=N\Nc1ccc([N+](=O)[O-])cc1)c1cccc(N)c1	-12%
COc1ccc(CCN2C(=O)CC(NNC(=O)c3ccc(F)cc3)C2=O)cc1OC (stereo unspecified)	-9%
O=C(Nc1ccccc1)c1cnc(-c2ccccc2)nc1-c1ccccc1	-3%
CC(C)OP(=O)(OC(C)C)C(NC(=O)c1cccc([N+](=O)[O-])c1)C(N)=O (stereo unspecified)	-1%
OCCN(CCO)c1ncnc2c1oc1ccc(Br)cc12	-29%
C=CCn1c(C)cc(C(=O)CSc2nc3ccccc3c(=O)[nH]2)c1C	2.8µM*
COc1ccc(NS(=O)(=O)c2cccc(C(=O)NNC(=O)c3cc(C)oc3C)c2)cc1	-7%
CCOC(=O)c1cc(C(C)=O)n2ccccc12	-19%
O=c1nc2n(Cc3ccccc3)c3ccccc3cc-2c(=O)[nH]1	u
Cc1c(NC(=O)c2ccc3c(c2)OCO3)cccc1-c1nc2ncccc2o1	-23%
CCOC(=O)c1ccc(NC(=O)c2cc(S(=O)(=O)N3CCOCC3)ccc2O)cc1	u
CCOC(=O)c1c(NC(=O)C(Sc2ccccc2)c2ccccc2)sc(C(N)=O)c1C (stereo unspecified)	28µM*
O=[N+]([O-])c1ccc(/C=N/NC(=S)Nc2ccccc2F)o1	-12%
CC(Sc1nncn1C)C(=O)Nc1ccccc1-c1ccccc1 (stereo unspecified)	-5%
C=C1CC(C)OC(c2ccccc2OCC(O)CN2CCCCC2)C1 (stereo unspecified)	-9%

Among those listed so far, these have four or more nitrogen atoms:
SMILES	HPGD block
O=C(NCc1ccco1)C(c1ccccc1F)N(CC1CCCO1)C(=O)Cn1nnc2ccccc21 (stereo unspecified)	-7%
CCn1c(SCC(=O)Nc2nc3ccccc3s2)nc2c(c1=O)SC(C)C2 (stereo unspecified)	-6%
CCCS(=O)(=O)N1CCCC(C(=O)NCCCN2CCN(c3ccccc3F)CC2)C1 (stereo unspecified)	-6%
COC(=O)C1CCN(C(c2cc(OC)c(OC)c(OC)c2)c2sc3nc(C)nn3c2O)CC1 (stereo unspecified)	-4%
COc1ccc(CNC(=O)c2cc3c(=O)n4ccccc4nc3n(CC3CCCO3)c2=N)cc1 (stereo unspecified)	u
COc1ccccc1NC(=S)N1CCC(c2nc3cc(C)c(C)cc3[nH]2)CC1	-5%
C/C(=N\Nc1ccc([N+](=O)[O-])cc1)c1cccc(N)c1	-12%
O=[N+]([O-])c1ccc(/C=N/NC(=S)Nc2ccccc2F)o1	-12%
CC(Sc1nncn1C)C(=O)Nc1ccccc1-c1ccccc1 (stereo unspecified)	-5%

Additional structures:
SMILES	HPGD block
CCOc1cccc(C(=O)Nc2ccc3oc(Cc4ccc(Cl)cc4)nc3c2)c1	-25%
COC(=O)CN1C(c2ccc(OC)cc2)=Nc2ccc(Cl)cc2C1c1ccccc1 (stereo unspecified)	-7%
Cc1c(O)ccc2c(CN3CCN(CCO)CC3)cc(=O)oc12	u
O=C1OC2(c3cc(Br)c(O)c(Br)c3Oc3c2cc(Br)c(O)c3Br)c2c(Cl)c(Cl)c(Cl)c(Cl)c21	13µM*
COc1ccccc1N(CN1C(=O)c2ccccc2C1=O)C(=O)c1cccnc1	-4%
COCCNC(=O)CN(C(=O)Cn1nnc2ccccc21)c1ccc(F)c(Cl)c1	-10%
COc1ccccc1NC(=O)CCC(=O)c1ccc(-c2ccccc2)cc1	18µM*
Cc1ccc(C(=O)O)cc1S(=O)(=O)N1CCOCC1	-4%
CC(C)C[C@@H](CC(=O)N[C@@H](CCCN)CC(=O)N[C@@H]1CCCC[C@H]1C(=O)N[C@H](CC(=O)N[C@@H](CCC(=O)O)CC(=O)O)CC(C)C)NC(=O)[C@@H]1CNCC[C@H]1N	-8%
COc1ccccc1NC(=O)Cn1nnc(-c2ccccc2NC(=O)c2cccs2)n1	-27%
OC(COc1ccc2cc(Br)ccc2c1)CN1CCN(c2ccccn2)CC1 (stereo unspecified)	-19%
O=c1oc2ccccc2n1CSc1nc2ccccc2s1	-24%
COC(=O)Cc1c(C)nc2nc(-c3ccc(C)cc3)[nH]n2c1=O	-26%
CCCCOc1ccc(C(=O)OC(C)CN(C)C)cc1 (stereo unspecified)	-1%
N#C/C(=C\c1ccccc1)C(=O)NC(=O)Oc1ccccc1	-15%
CCN(CC)CCCN1C(=O)C(O)=C(C(=O)c2cc3cccc(OC)c3o2)C1c1ccncc1 (stereo unspecified)	-14%
CCCCCOC(=O)Nc1ccc(S(=O)(=O)Nn2cnnc2)cc1	-13%
Cc1c(O)ccc(C(=O)COc2ccccc2F)c1O	-12%
CSCCC1NC2(C(=O)Nc3c2ccc(Cl)c3C)[C@@H]2C(=O)N(C3CCCC3)C(=O)[C@H]12 (stereo partly specified)	-13%
CN(C)S(=O)(=O)c1cccc(C(=O)OCC(=O)NC2CCCc3ccccc32)c1 (stereo unspecified)	-16%
Cc1cccc(NC(NC(=O)c2cccnc2)C(Cl)(Cl)Cl)c1 (stereo unspecified)	-7%
Cc1c(C)[n+](=O)c(-c2ccc(F)cc2)c(C)n1[O-]	2%
COc1ccc(CN(C(=O)CN2C(=O)COc3ccccc32)C2CCCC2)c(OC)c1	-4%
CC(Sc1c[nH]c2ccccc12)C(=O)O (stereo unspecified)	-26%
O=C1C2ON(c3ccccc3)C(c3cccnc3)C2C(=O)N1c1ccc(Cl)c(Cl)c1 (stereo unspecified)	-4%
COc1cc2c(cc1NC(=O)COC(=O)[C@@H](NS(=O)(=O)c1cccc(Cl)c1)C(C)C)oc1ccccc12	-27%
Oc1c(C(c2ccccc2)N2CCCCC2)sc2ncnn12 (stereo unspecified)	-20%
CC(=O)Nc1nc2ccc(NC(=O)c3ccco3)cc2s1	u
Cc1ccccc1-n1c(C)cc(/C=C2/C(=N)N3C(c4ccccc4)=CSC3=NC2=O)c1C	u
COCCNC(=O)/C(C#N)=C/c1ccc(-c2ccc(OC)cc2[N+](=O)[O-])o1	-10%
O=C(Nc1sc2c(c1C(=O)O)CCC2)c1cccs1	25µM*
O=c1oc2ccccc2c2c1ncn2-c1ccccc1	-6%
CCOC(=O)Cc1cc(=O)n2[nH]c(C)c(-c3ccc(OC)cc3)c2n1	-17%
COc1ccccc1OCCOc1ccc(C(=O)c2ccccc2)cc1	-24%
CCOC(=O)C(C)Sc1nc2c(c(=O)[nH]c(=O)n2C)n1CCc1ccccc1 (stereo unspecified)	-15%
Cc1ccc(NC(=O)Cn2nnc(C(=O)Nc3ccc(C)c(C)c3)c2N)cc1	-25%
CC12CCC(=O)N1C(C(=O)OCC(=O)Nc1cc(S(=O)(=O)N3CCCCC3)ccc1Cl)CS2 (stereo unspecified)	-8%
CCOC(=O)CSc1nnc(CNc2cccc(Cl)c2)n1-c1ccccc1	3%
Cc1ccc(S(=O)(=O)NC(C)C(=O)Nc2ccc(C(N)=O)cc2)cc1 (stereo unspecified)	-5%
COc1ccc(CNC(=O)CCCCCn2c(SCC#N)nc3cc4c(cc3c2=O)OCO4)cc1	-12%
O=C(c1ccccc1[N+](=O)[O-])N1CCC(Cc2ccccc2)CC1	-23%
CS(=O)(=O)Nc1ccc(-c2n[nH]c(=S)n2-c2ccccc2)cc1	u
Cc1cccc(NC(=S)NNC(=O)c2nn(C)cc2Cl)c1	-19%
Cc1ccc(-n2[nH]c(C)c(/C=C3/C=Nc4ccccc43)c2=O)cc1C	-2%
COc1ccc(NC(=O)c2ccc(COc3ccccc3)o2)cc1	-16%
CCCC(C)NC1=NCCCCC1 (stereo unspecified)	-4%
CCOC(=O)C(C)(C)N(Cc1ccc(Cl)cc1)S(=O)(=O)c1ccc(Cl)c([N+](=O)[O-])c1	-17%
Cc1ccc(C(=O)NCCc2cc3ccc(C)c(C)c3[nH]c2=O)cc1[N+](=O)[O-]	-6%
Nc1nc(N2CCOCC2)cc(=O)[nH]1	-13%
CC(C)N(CCNC(=O)C1CCN(S(=O)(=O)N2CCOCC2)CC1)Cc1ccccc1	-17%
c1ccc2sc(N3CN(CCN4CCOCC4)CN(c4nc5ccccc5s4)C3)nc2c1	-11%
Fc1ccccc1COc1ccccc1CNCc1ccncc1	-15%
COc1ccc(OCCSc2ncn[nH]2)cc1	-5%
Cc1c(C(=O)N2CCN(c3ccccc3)CC2)sc2ncnc(N3CCC(C)CC3)c12	-14%
CC1Cc2cc(-c3csc(NC(=O)Cc4cccs4)n3)ccc2N1S(C)(=O)=O (stereo unspecified)	-13%
CCC(CC)C(=O)c1c[nH]c(C(=O)NCc2ccco2)c1	-12%
C=CCOc1nc2c(c(=O)n(C)c(=O)n2C)n1Cc1ccc(Cl)cc1	-9%
Cc1nc(N=Nc2ccc(S(=O)(=O)O)cc2S(=O)(=O)O)c(COP(=O)(O)O)c(C=O)c1O	-13%&-23%
N#Cc1nc(-c2cccs2)oc1N1CCN(Cc2ccccc2)CC1	u
CC(CC(=O)O)CC(=O)Nc1ccccc1C(=O)O (stereo unspecified)	-16%

Reformatted as labelled records: part of the list above.
SMILES: CC(=O)c1ccc(N(C(=O)Cc2c[nH]c3ccccc23)C(C(=O)NC2CCCCC2)c2cccs2)cc1 (stereo unspecified)
  HPGD block: -1%

SMILES: CCOc1ccc(NS(=O)(=O)c2cc(NC(=O)c3ccc(C)cc3)ccc2Cl)cc1
  HPGD block: u

SMILES: O=C(C1CC(c2cccc(Br)c2)=NO1)N1CCc2ccccc2C1 (stereo unspecified)
  HPGD block: u

SMILES: CCOc1ccc(OCCCCN(C)C)cc1
  HPGD block: -5%

(further entries)
SMILES	HPGD block
COCCCn1c(SCC(=O)n2c(C)c(C)c3ccccc32)nnc1-c1ccoc1C	-11%
c1ccc(Nc2cc(Nc3ccccc3)[nH]n2)cc1	-12%
CCOC(=O)Cn1nc(-c2ccc(F)cc2)oc1=O	-6%
Cc1nc(C)c(C(=O)Nc2cccc(Cl)c2)o1	-15%
CCN(CC)c1ccc(/C=N/NC(=S)NCc2ccccc2)cc1	u
CC(C)Cn1c(-c2cc([N+](=O)[O-])ccc2Cl)nc2c1c(=O)[nH]c(=O)n2Cc1ccccc1	-28%
CC(=O)O/N=C/c1c(N2CCOCC2)n(C)c2ccccc12	-15%
O=C(Oc1ccc(Cl)cc1)c1ccc(N2CCOCC2)c([N+](=O)[O-])c1	-18%
COC(=O)c1ccc(N/C(C)=C/C(=O)c2ccc(C)o2)cc1	-16%
COc1ccc2[nH]c3c(=O)n(/N=C/[C@H]4C(C)C=C(C)CC4C)c(=O)[nH]c3c2c1 (stereo partly specified)	u
O=C(O)Cn1c(=O)cnc2ccccc21	u
CCOC(=O)c1c(NC(=O)c2cc(C)oc2C)sc(C(=O)Nc2ccc(Cl)cc2)c1C	u
COc1ccccc1-c1nnc(Sc2nc([N+](=O)[O-])nn2C)o1	-3%
COc1cccc(/C=N/N2C(=O)CSC2=S)c1O	25µM*
COc1ccc(C2N(C(=O)CN3CCOCC3)CCN2S(=O)(=O)c2ccccc2)cc1 (stereo unspecified)	-1%
O=C(/C=C/c1ccccc1Cl)NCc1ccccc1	-29%
Cn1cnnc1SCc1ccccc1	-5%
N#C/C(=N\Nc1cc(Cl)cc(Cl)c1)c1nnc2n1CCCCC2	25µM*
Clc1ccc(Cl)c(Cl)c1Cl	-8%
O=C(CSc1nc2ccccc2s1)N/N=C/c1ccco1	-5%
